Compound activity as filed in PubChem BioAssay.
SARS PLpro yeast = qHTS of Yeast-based Assay for SARS-CoV PLP | 330,000 compounds, 0.19% hits | S. cerevisiae expressing SARS-CoV PLpro, growth rescue; control for the full effect not named in the record | Potency, µM (doses to about 32.9 µM), inactives show at the top dose activity, positive = growth rescue; active means well fitted rising curve with a large enough effect; inconclusive means small, poorly fitted or top-dose-only effect; inactive means no such curve, though single readings can be large or run the other way; also: 0% is about no effect; nearly all actives have a fitted effect of over 55% in size; growth read by luminescence after 48 h
RE007 growth inh = qHTS Assay for Inhibitors of the HIV-1 protein Vpr; S. pombe RE007 Vpr strain, BacTiter-Glo ATP luminescence, 24 h; control for the full effect not named in the record; Potency, µM (doses to about 92.2 µM), without a hit: at the top dose activity change, negative = less growth; 360,000 compounds, 0.21% hits; active = well fitted falling curve with a large enough effect; inconclusive = small, poorly fitted or top-dose-only effect; inactive = no such curve, though single readings can be large or run the other way;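 also: % is scaled to controls: 0 for no effect and ±100 for the full control effect; nearly all actives have a fitted effect of over 50% in size; the assay follows cell death caused by Vpr and the record does not say whether a fall means rescue or toxicity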
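Fission yeast RE007 carrying one integrated HIV-1 vpr copy, seeded at OD 0.01 in PMG+AL medium with 23 nL pinned compound. Grown 24 h at 30 degrees; viability read by BacTiter-Glo luminescence after 5 min.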
2A StopGo = High Throughput Screening for Foot and Mouth Disease Virus Antivirals. human cells with a luciferase reporter of 2A StopGo recoding; control for the full effect not named in the record. Potency, µM (doses to about 57.9 µM), inactives show at the highest dose signal change, negative = less light. 410,000 compounds, 1.2% hits. AID 1159524, 2015; active = well fitted falling curve with a large enough effect; inconclusive = small, poorly fitted or top-dose-only effect; inactive = no such curve, though single readings can be large or run the other way; tested in HEK293T cells; also: % is scaled to controls: 0 for no effect and ±100 for the full control effect; nearly all actives have a fitted effect of over 45% in size; luciferase light after 4 h
Starred values were filed as active, the others as inactive; ? = inconclusive; [ ] = dose if it differs, or a comment. Potency is read from the fitted curve at half-maximal effect.

SMILES	SARS PLpro yeast	RE007 growth inh	2A StopGo
CC(C)n1nc(C(=O)Nc2cccc(S(=O)(=O)N3CCCCC3)c2)c2ccccc2c1=O	11%	19%	0%
O=C(O)c1ccc(NCCC2=CCCCC2)c([N+](=O)[O-])c1	-7%	3%	0%
Cn1cnc(S(=O)(=O)Nc2ccc(OC(F)(F)F)cc2)c1	3%	16%	11%
O=C(COC(=O)c1cnc(Cl)c(Cl)c1)NC1CCCCCC1	2%	-5%	-14%
CC(C)Cn1c(=S)[nH]c2cc(C(=O)NCc3ccccc3F)ccc2c1=O	-6%	-15%	?
O=C(COC(=O)c1ccc([N+](=O)[O-])cc1Cl)NCc1ccco1	-9%	2%	7%
COc1ccc(N2CCN(C(=O)c3cccc(S(=O)(=O)N4CCOCC4)c3)CC2)cc1	2%	1%	-14%
O=C(O)c1ccc(/C=C2\SC(=Nc3ccccc3)N(c3ccccc3)C2=O)cc1	0%	10%	-29%
Nc1nc(N)nc(-c2cc(F)ccc2O)n1	-1%	-9%	0%
Cc1ccc2c(c1)[C@H]1[C@H](CO2)[C@H](c2ccccc2)[C@]2(C)C(=O)N(Cc3ccco3)CC(=O)N12	-3%	4%	-25%
N#Cc1ccc(C(=O)Nc2cc(-c3ccccc3)nn2-c2ccccc2)cc1	0%	3%	-22%
COc1ccc(N2C(=O)CC(N3CCCCC3)C2=O)cc1 (stereo not given)	-5%	18µM*	-1%
O=C1C(Cc2ccccc2)Nc2ncnc(N3CCCCC3)c2N1Cc1ccccc1 (stereo not given)	12%	-1%	0%
O=C(COC(=O)CC1CCCCC1)Nc1c(Cl)cccc1Cl	0%	25%	0%
COC(=O)C1=C(c2c(C)noc2C)C[C@@H]2CC[C@H]1N2C(=O)NCCCOC(C)C	-8%	3%	-1%
COc1ccc(C(=O)OCC(=O)Nc2ncc([N+](=O)[O-])s2)cc1OC	-5%	-1%	3%
C=CCC[C@H](Cc1ccc(F)cc1)C(=O)OC[C@H](C)NC(=O)[C@H](CC=C)CC(=O)NCCO	-11%	6%	-14%
COC(=O)C1=C(c2cc3ccccc3s2)C[C@@H]2CC[C@H]1N2C	-2%	-11%	29%
COCc1c(C(=O)NCC2COc3ccccc3O2)oc2ccccc12 (stereo not given)	0%	-10%	-15%
CCC(C)Sc1ccc(-c2nc3ccc(C)cn3c2NCc2ccccc2)cc1OC (stereo not given)	2%	?	35µM*
CC(C)S(=O)(=O)c1nsc2nc(=O)c(/C=C3\C=Nc4ccccc43)c(N)n12	0%	9%	-2%
CCCCn1nc(C(=O)N(CC)CC(=O)Nc2c(F)cccc2F)c2ccccc2c1=O	-2%	2%	-12%
CN(c1ccccc1)S(=O)(=O)c1cccc(NC(=O)CSc2nnc(C3CC3)n2C)c1	-3%	-4%	0%
CCOC(=O)C1=C(C)N(C[C@@H]2CC[C@@H](Cc3ccc(-c4ccccc4)cc3)O2)C(=O)NC1c1ccc(Cl)cc1 (stereo not given in full)	4%	4%	-30%
COCCN(C(=S)Nc1c(C)cccc1C)C(C)c1cccs1 (stereo not given)	2%	-9%	-11%
O=C(NCCCN1CCCC1=O)C1CCN(S(=O)(=O)c2ccccc2)CC1	-2%	13%	6%
NC(=O)C1CCN(C(=O)CCNS(=O)(=O)c2ccccc2F)CC1	0%	3%	-11%
O=C(NCc1ccc2c(c1)OCO2)c1c(-c2ccccc2)sc2ccccc12	-3%	15%	35%[activator]
COc1ccc([C@@H]2[C@@H]3C(=O)N(C(C)(C)C)C(=O)[C@@H]3[C@]3(Cc4ccc(Cl)cc4)C(=O)N(c4ccc(OC)cc4)C(=O)N23)cc1	2%	-1%	-5%
CN(C(=O)COC(=O)C1(C)CC1(Cl)Cl)c1c(N)n(Cc2ccccc2)c(=O)[nH]c1=O (stereo not given)	3%	0%	-8%
O=[N+]([O-])c1cc(Br)c(OCc2nnc(-c3ccccc3)o2)c(Br)c1	-2%	-14%	0%
C[C@@H]1O[C@@H](OC[C@@H]2O[C@H](Oc3c(-c4ccc(O)cc4)oc4cc(O)cc(O)c4c3=O)[C@@H](O)[C@H](O)[C@H]2O)[C@H](O)[C@H](O)[C@H]1O	-9%	-4%	-6%
COc1ccc(S(=O)(=O)Nc2ccc3c(c2)C(=O)N([C@H](C)CO)C[C@H](C)[C@@H](CN(C)C(=O)NC(C)C)O3)cc1	-3%	5%	15%
CCOC(=O)C1=C(C)Nc2ccccc2N=C1NC(=O)c1cc(C)on1	-3%	-1%	-12%
Cc1ccc(CSC2=NCCN2C(=O)c2ccc(S(=O)(=O)N(C)C)cc2)cc1	-1%	-3%	-7%
Cc1nnc(SCC(=O)Nc2cc(S(=O)(=O)N3CCCC3)ccc2Cl)n1C1CC1	0%	2%	0%
CSCCC(NC(=O)COc1ccccc1)C(=O)N(C)Cc1cccc(F)c1 (stereo not given)	1%	1%	44%[activator]
O=C(CNC(=O)c1ccc(Cl)cc1)NCc1ccccn1	-2%	6%	-6%
NS(=O)(=O)c1cccc(NC(=O)CSc2nnc(-c3ccncc3)n2C2CC2)c1	-4%	-3%	-1%
CON(C)C(=O)CC1(CN(Cc2ccccc2)C(=O)OC(C)(C)C)CCCCC1	6%	17%	?
CCc1ccc(NC(=S)Nc2cc(C(=O)O)ccc2N2CC3CC(C2)c2cccc(=O)n2C3)cc1 (stereo not given)	15%	3%	24%
c1ccc(-c2nn3cnnc3c3ccccc23)cc1	-5%	15%	-18%
CC1(C)O[C@@H]2[C@H](O1)[C@@H](CO)O[C@H]2n1ccc(=O)[nH]c1=O	0%	-12%	-5%
COc1cccc(CNC(=O)CC(NC(C)=O)c2ccccc2)c1 (stereo not given)	0%	14%	-4%
CC[C@]12c3[nH]c4ccccc4c3CCN1C(=O)C(CC(=O)NCCCOC)C[C@@H]2C(=O)N1CCN(C(=O)C2CC2)CC1 (stereo not given in full)	-2%	-19%	-16%
Cc1ccc(S(=O)(=O)N2CCN(C(=O)COC(=O)c3cc([N+](=O)[O-])ccc3NCCO)CC2)c(C)c1	-1%	2%	?
COc1cc2cnc(CCO[C@H]3CCCCO3)cc2cc1OC	4%	-7%	14%
CCN(CC(=O)Nc1cc(Cl)ccc1C)C(=O)Cc1ccsc1	4%	3%	-10%
Cc1cc(=O)n(CCCc2ccccc2)[nH]1	-25%	-15%	-2%
CCc1sc(C(=O)Nc2cc(S(=O)(=O)N3CCOCC3)ccc2OC)cc1C	0%	-5%	1%
Cc1cnc(C(=O)OCC(=O)N2CCc3ccccc32)cn1	0%	-2%	-2%
O=C1C=C(c2ccc(F)cc2OCc2ccccc2)C[C@@H](c2ccc(Cl)cc2)C1	-5%	5%	?
CCOC(=O)C1=CNS(=O)(=O)NC1c1ccccc1 (stereo not given)	-6%	2%	-13%
COc1ccc(S(=O)(=O)N2CCOCC2)cc1NC(=O)c1ccncc1	1%	1%	3%
O=C(COC(=O)c1ccc(O)cc1)NC(=O)NCc1ccccc1	2%	1%	2%
COc1ccc(CCC(=O)NNC(=O)c2cccs2)cc1	-5%	0%	-7%
CC(C)Cn1c(N)c(C(=O)COC(=O)c2c(O)c(Cl)cc(Cl)c2Cl)c(=O)n(C)c1=O	5%	1%	-25%
Nc1ncnc2c1nc(N1CCCCC1)n2[C@@H]1O[C@H](CO)[C@@H](O)[C@H]1O	0%	13%	-15%
COC(=O)[C@@]12CCCCN1[C@H](c1ccc(-c3ccc4c(c3)OCO4)cc1)[C@H]1C(=O)N(C)C(=O)[C@H]12	-17%	1%	?
Cc1ccc(S(=O)(=O)NCCC(=O)NNc2c(F)c(F)cc(F)c2F)cc1	9%	1%	-5%
Next part:
SMILES	SARS PLpro yeast	RE007 growth inh	2A StopGo
O=C(OCCc1cc2ccccc2c(=O)o1)c1ccccc1C(F)(F)F	6%	1%	-27%
OCC[C@H]1C[C@@H](O)[C@H](O)[C@@]2(Cc3ccccc3CO2)O1	-2%	8%	4%
Cc1cccc(C)c1OCc1n[nH]c(=S)n1-c1ccccc1	1%	19%	2%
COc1ccccc1Nc1nnc(SC(C)C(=O)NC2CC2)s1 (stereo not given)	6%	-14%	-7%
Cc1cc(C(=O)NNC(=O)[C@H](C)NC(=O)c2ccc(Br)cc2)c(C)o1	1%	0%	-15%
Cn1cccc1C(=O)OCC(=O)N1CC(=O)Nc2ccccc21	1%	1%	-4%
Cc1ccc(/C=C2/NC(=O)N(Cc3ccccc3F)C2=O)s1	-2%	3%	0%
O=C(O)c1cccc2c1C(=O)c1ccc(-c3ccc(F)cc3OCc3ccccc3)cc1S2(=O)=O	3%	5%	39%[activator]
O=c1oc(C2(O)CCCCC2)cc2ccc(-c3ccc4[nH]ccc4c3)cc12	-8%	-1%	11%
CC1O[C@@H](OC2C(COC3OC(CO)C(O)[C@H](O)C3O)OC(OC3CC[C@]4(C)C(CC[C@@]5(C)[C@@H]4CC=C4[C@@H]6CC(C)(C)CC[C@]6(CO)C(O)C[C@]45C)C3(C)C)C(O)C2O)C(O)C(O)C1O (stereo not given in full)	8%	-3%	9%
CC(C)(C)OC(=O)C[C@H]1C/C=C\C[C@H](CC(=O)N[C@H](CO)Cc2ccccc2)C(=O)N2CCC[C@H]2COC1=O	1%	-2%	-14%
O=C(/C=C/c1ccc2c(c1)S(=O)(=O)N(Cc1ccccc1)[C@H]2CC(=O)N1CCOCC1)N1CCOCC1	0%	0%	39%[activator]
CCNC(=O)N1CCN(S(=O)(=O)c2ccc3c(c2)OCCCO3)CC1	0%	3%	-13%
CCN1C(=O)[C@H]2[C@@H](c3ccc(-c4cccc(Cl)c4)cc3)N3CCCC[C@@]3(C(=O)OC)[C@H]2C1=O	1%	8%	-20%
CC(=O)NC1=NC(=O)/C(=C/c2cn(C(C)=O)nc2-c2ccccc2)S1	-5%	7%	-11%
O=C(C[C@H]1C[C@H](C(=O)N2CCOCC2)[C@@]2(CCC3CCCC3)c3[nH]c4ccc(Cl)cc4c3CCN2C1=O)NCCN1CCOCC1	6%	-7%	-16%
NC(=O)c1cccc(C(N)=O)n1	-6%	-10%	-12%
Cc1c(Br)c([N+](=O)[O-])nn1CCCC(=O)Nc1c(C)n(C)n(-c2ccccc2)c1=O	1%	-13%	-3%
O=C(C[C@H]1C/C=C\C[C@@H](NC(=O)OCC2c3ccccc3-c3ccccc32)C(=O)O[C@@H](c2ccccc2)CNC1=O)N[C@H](CO)Cc1ccccc1	4%	-9%	0%
C=C[C@@H]1c2cccc(C)c2N(S(=O)(=O)c2ccc(C)cc2)[C@H](c2ccc(OC(C)=O)cc2)C1(C#N)C#N	1%	10%	-22%
CCCN(CC(=O)Nc1ccccc1C)C(=O)C1CC(=O)N(c2ccccc2C(C)CC)C1 (stereo not given)	1%	5%	-13%
Cc1ccc2c(c1)C(=O)N1[C@H]3c4ccccc4OC[C@@H]3[C@H](c3ccccc3)[C@]1(C)C(=O)N2	3%	1%	-20%
CCOCCCNC(=O)c1ccc2c(=O)n(Cc3ccc(OC)cc3)c(=O)[nH]c2c1	1%	6%	-20%
Cc1ccc2nc(COc3ccc(N(C)S(=O)(=O)c4ccccc4)cc3)cc(=O)n2c1	5%	15%	32µM*

One compound at a time, as listed above.
Results for `O=C(/C=C/c1ccc2c(c1)S(=O)(=O)N(Cc1ccccc1)[C@H]2CC(=O)N1CCOCC1)N1CCOCC1` : SARS PLpro yeast: 0%; RE007 growth inh: 0%; 2A StopGo: 39%[activator]
Results for `COc1ccc([C@@H]2[C@@H]3C(=O)N(C(C)(C)C)C(=O)[C@@H]3[C@]3(Cc4ccc(Cl)cc4)C(=O)N(c4ccc(OC)cc4)C(=O)N23)cc1` : SARS PLpro yeast: 2%; RE007 growth inh: -1%; 2A StopGo: -5%

Additional compounds
SMILES	SARS PLpro yeast	RE007 growth inh	2A StopGo
CCc1cc(Cn2nc(-c3ccccc3)cc2C(=O)NCc2ccccc2OC)on1	-13%	-6%	-8%
Cc1ccc(C(=O)OC(C)C(=O)Nc2ccc(Cl)cn2)s1 (stereo not given)	-3%	-2%	-15%
O=C(Nc1ccc(F)c(Cl)c1)C1CCCN(C2=NS(=O)(=O)c3ccccc32)C1 (stereo not given)	1%	-11%	-10%
Cc1cc(=O)[nH]c(SCC(=O)Nc2ccc3c(c2)CCC3)c1C#N	-16%	21%	19%
COc1cc2cc(CCCOC(=O)c3cccc(Br)c3)oc(=O)c2cc1OC	0%	-19%	-5%
CCC(CO)Oc1cc(NCc2cccc(O)c2)c2ncn(C(C)C)c2c1 (stereo not given)	10%	-9%	-9%
Cc1ccc(S(=O)(=O)N2CCN(C(=O)COC(=O)CCOc3ccccc3)CC2)c(C)c1	1%	0%	-21%

Molecules listed so far that have bromine:
SMILES	SARS PLpro yeast	RE007 growth inh	2A StopGo
O=[N+]([O-])c1cc(Br)c(OCc2nnc(-c3ccccc3)o2)c(Br)c1	-2%	-14%	0%
Cc1cc(C(=O)NNC(=O)[C@H](C)NC(=O)c2ccc(Br)cc2)c(C)o1	1%	0%	-15%
Cc1c(Br)c([N+](=O)[O-])nn1CCCC(=O)Nc1c(C)n(C)n(-c2ccccc2)c1=O	1%	-13%	-3%
COc1cc2cc(CCCOC(=O)c3cccc(Br)c3)oc(=O)c2cc1OC	0%	-19%	-5%

A portion of the library; the hit share may differ from the screen's.
